GALR2 ag – agonists of human galanin receptor 2 (GALR2). O43603. activation, %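 (tested at 5 µM)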. actives 0.48% (n = 140,000). GALR2-expressing cells, agonist activation read-out. AID 803;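 active = above mean plus 3 SD of all compounds, about 5% in these data, not always enough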;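 also: 0% = vehicle buffer wells and 100% = reference agonist at full effect; tested in CHO reporter cells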
RGS16-Gao – regulators of human RGS16-Galphao interaction; binding response (% of control), % at 10 µM; bead-based flow cytometry RGS16-Galphao binding, fluorescence; actives lie on both sides; actives 0.38% (n = 220,000); O15492+P09471;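 active = below 25% or above 175%, edge rows of some plates excepted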;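 also: Galphao activated by GDP with aluminum fluoride before binding; 100% = wells without compound and 0% = beads without RGS; some results beyond the cut were filed as inactive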
INS promoter inh – TRM-6 insulin promoter activity inhibition. TRM-6 cells (human fetal islet line), insulin promoter-eGFP reporter, imaging; reporter expression induced with tamoxifen. inhibition, % at 2 µM. actives 0.9% (n = 130,000);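 active = inhibition above the mean plus 3 SD, with well images judged a real hit on visual review, cut at about 60% in these data, passing the limit was not always enough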
PKD1 inh – PKD1 (human) kinase inhibition; actives 0.056% (n = 200,000); AID 797; inhibition, %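 (about 10 µM by stock and volumes)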; Q15139; PKD1 kinase fluorescence polarization assay;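 active = inhibition of 50% or more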;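 also: controls were vehicle for no effect and a reference inhibitor for full effect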
Target sequence (Q15139 whole entry, looked up): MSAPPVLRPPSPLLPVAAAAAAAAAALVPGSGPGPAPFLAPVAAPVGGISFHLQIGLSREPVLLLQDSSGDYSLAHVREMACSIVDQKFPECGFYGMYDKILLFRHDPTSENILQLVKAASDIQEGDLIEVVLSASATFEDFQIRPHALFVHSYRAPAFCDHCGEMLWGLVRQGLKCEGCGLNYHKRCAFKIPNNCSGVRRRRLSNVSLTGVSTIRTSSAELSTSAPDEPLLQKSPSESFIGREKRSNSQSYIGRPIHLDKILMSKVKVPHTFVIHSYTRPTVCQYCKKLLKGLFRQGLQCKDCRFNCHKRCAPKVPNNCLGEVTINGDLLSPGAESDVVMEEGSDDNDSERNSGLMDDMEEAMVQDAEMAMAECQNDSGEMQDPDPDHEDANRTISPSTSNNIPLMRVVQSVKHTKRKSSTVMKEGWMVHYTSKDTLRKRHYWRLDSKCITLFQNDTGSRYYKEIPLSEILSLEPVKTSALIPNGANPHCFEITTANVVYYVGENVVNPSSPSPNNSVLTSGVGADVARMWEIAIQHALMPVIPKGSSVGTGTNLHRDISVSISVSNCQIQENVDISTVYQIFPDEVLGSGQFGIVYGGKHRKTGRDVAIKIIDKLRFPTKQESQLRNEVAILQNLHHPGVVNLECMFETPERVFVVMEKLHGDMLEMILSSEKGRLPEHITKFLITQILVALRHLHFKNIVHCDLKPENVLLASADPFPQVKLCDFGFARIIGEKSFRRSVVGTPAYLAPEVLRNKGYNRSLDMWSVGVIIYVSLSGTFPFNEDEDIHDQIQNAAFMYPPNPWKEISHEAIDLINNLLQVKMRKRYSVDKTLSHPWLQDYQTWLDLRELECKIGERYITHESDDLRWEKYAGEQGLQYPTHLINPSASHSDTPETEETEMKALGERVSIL
HSV augment – increases HSV replication in cells; HSV replication augmentation in cells, fold increase; maximum fold increase; actives 0.005% (n = 220,000); AID 1956;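 active = peak rise of 1.5-fold or more in the series; tested in PC3 cells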;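 also: first round at 10 µM; read as green reporter fluorescence; hits show the peak of a series up to 25 µM; 1 = signal of infected wells without compound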
INS promoter inh cell count – also measured in INS promoter inh; calls as there; normalized cell count, %; measured here: cell count, toxicity; reference of the scale not given here;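 cells exposed to compound for 48 h; stained nuclei by imaging scaled within each plate; lower means fewer cells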
HSV augment primary fold – second read-out of HSV augment, no call of its own (marks repeat the call); fold increase; compound at 10 µM; measured here: primary screen fold increase 10 uM; tested in PC3 cells;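 GFP signal in the first replicate; 1 = infected wells without compound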
The depositor's hits bear a star; i = inactive; · = not tested or not shown. Hits appear at their usual frequency; about 1.3% have a hit in one of these screens.

mol	GALR2 ag	RGS16-Gao	INS promoter inh	INS promoter inh cell count	PKD1 inh	HSV augment	HSV augment primary fold
CCc1c(C(=O)NCc2ccc3c(c2)OCO3)[nH]c(C)c1C(C)=O	-2.3	114	·	·	3	i	0.87
COc1ccc(Cc2noc(CN3CCC(c4ccncc4)CC3)n2)cc1OC	·	103	·	·	5	i	1.1
O=C(Nc1ccc(O)cc1C(=O)O)c1cccs1	·	109	·	·	-2	i	1.1
COc1ccc(C2CC(c3c(-c4ccccc4)c4cc(Cl)ccc4[nH]c3=O)=NN2C(=O)CCC(=O)O)cc1 (stereo unspecified)	·	95	·	·	2	i	0.97
Cc1cc(C(N)=O)nn1-c1c(Cl)cc(Cl)cc1Cl	·	101	·	·	·	i	1
Cc1ccc(N2CCN(C(=O)c3ccccc3F)CC2)c(C)c1	-1.6	99	·	·	-17	i	0.96
CCOC(=O)Cc1csc(NC(=O)CC)n1	-2.8	104	·	·	1	i	0.78
O=C(CCN1CCN(S(=O)(=O)c2ccc(Cl)cc2)CC1)Nc1ccccc1F	·	104	·	·	3	i	1
COC(=O)c1ccc(C2C(C(C)=O)=C(O)C(=O)N2CCO)cc1 (stereo unspecified)	-1.1	103	·	·	-2	i	0.91
COc1cc(C(c2sc3nc(C)nn3c2O)N2CCC3(CC2)OCCO3)cc(OC)c1OC (stereo unspecified)	-0.7	117	·	·	-1	i	0.95
COc1cccc(C(=O)NCCC2=CCCCC2)c1	-1.5	102	-7	136	2	i	0.83
COc1cc(/C=C2/C(=O)ON=C2C)ccc1OCc1cccc(F)c1	·	76	0	99	-2	i	1
CC(=O)Oc1ccc(N2C(=O)C3C4C=CC(CC4)C3C2=O)cc1[N+](=O)[O-] (stereo unspecified)	·	105	·	·	-1	i	0.98
CCN(CC)C(=O)CC(c1ccc(F)cc1)c1ccco1 (stereo unspecified)	-1.2	95	35	124	-9	i	0.9
O=C(O)c1cccc(Cn2c(Cl)c(/C=N/NC(=O)c3ccccc3Cl)sc2=O)c1	-2.0	91	·	·	-18	·	·

The list goes on (2 carried over from the part before).
mol	GALR2 ag	RGS16-Gao	INS promoter inh	INS promoter inh cell count	PKD1 inh	HSV augment	HSV augment primary fold
CCN(CC)C(=O)CC(c1ccc(F)cc1)c1ccco1 (stereo unspecified)	-1.2	95	35	124	-9	i	0.9
O=C(O)c1cccc(Cn2c(Cl)c(/C=N/NC(=O)c3ccccc3Cl)sc2=O)c1	-2.0	91	·	·	-18	·	·
C=CCN(CC=C)C(=O)c1cc2ccccc2c(=O)o1	0.4	113	-29	95	-1	i	1.1
COc1ccc(N2CCN(CCNC(=O)c3ccc(NC(=O)C4CCCO4)cc3)CC2)cc1 (stereo unspecified)	-1.1	101	·	·	-7	i	0.8
NC(=O)NC(=O)CSc1nc2sc(-c3ccccc3)cc2c(=O)n1-c1ccccc1	·	98	·	·	-5	i	0.78
COc1ccc(OCC(=O)Nc2nonc2NC(=O)COc2ccc(OC)cc2)cc1	·	102	20	97	2	i	1.1
CCc1nnc(NC(=O)CSc2nc3cc(OC)c(OC)cc3cc2C)s1	·	104	-14	84	-5	i	0.9
Clc1ccc(Cc2nc(-c3cccnc3)no2)cc1	-2.8	117	-40	150	-1	i	1
CCC(C)(C)c1ccc(OCCCC[n+]2ccccc2)c(C(C)(C)CC)c1	·	106	-56	63	-6	i	0.65
COc1ccccc1NC1=NC(CO)(CO)CS1	·	99	·	·	·	i	1.1
c1ccc(CSc2ccc(-c3ccco3)nn2)cc1	-2.8	104	32	105	-2	i	0.76
CN(Cc1ccccc1)C(=O)N[C@@H](Cc1ccccc1)C(=O)O	-0.7	104	16	127	-24	i	0.98
Cc1ccccc1/[N+]([O-])=C/c1cccs1	·	101	·	·	-7	i	0.82
CCCc1nnc(NC(=O)CCC(=O)N2CCN(CCn3c(C)ccc3C)CC2)s1	-2.7	101	-7	128	1	i	0.92
COc1ccc2nc(SCC(=O)Nc3ccccc3OC)[nH]c2c1	·	97	·	·	·	i	1.1
O=S1(=O)CCC(=Nc2ccc(Cl)cc2)c2ccsc21	·	102	·	·	5	i	0.8
Cc1ccc(/C=C(/C#N)C(=O)NC(C)c2ccccc2)o1 (stereo unspecified)	-1.0	112	-14	73	1	i	1.2
O=C(Nc1ccncc1)C1CC1c1ccccc1 (stereo unspecified)	-2.0	105	14	136	-7	i	0.93
COc1ccc(C2=Nc3nc(-c4ccccc4)cn3C(c3ccc(OC)cc3)C2)cc1 (stereo unspecified)	0.8	68	11	92	7	i	1.1
CS(=O)(=O)N(CC(=O)N1CCN(c2ccccc2F)CC1)c1cc(C(F)(F)F)ccc1Cl	-1.6	97	61	26	-4	i	0.78
Cc1cc(C)cc(Oc2coc3cc(OC(=O)c4cccnc4)ccc3c2=O)c1	-0.2	101	-3	60	-5	i	1.1
CC1(CC(=O)O)SC(=O)NC1=O (stereo unspecified)	-1.2	118	21	98	-4	i	0.88
COc1ccc(-n2cc(-c3ccccc3)nc2SC)cc1	-2.2	98	27	178	-5	i	0.95
COc1ccc(N(CC(=O)Nc2ccccc2C)S(=O)(=O)c2c(C)[nH]c(=O)[nH]c2=O)cc1	·	97	·	·	·	i	0.97
Cc1ccc2c(c1)-c1cc(C)nn1C(c1sccc1C)N2 (stereo unspecified)	-0.1	98	-29	202	-14	i	0.87
CCCC(=O)N1CCN(C2=NS(=O)(=O)c3ccccc32)CC1	-1.4	99	-17	140	-10	i	0.83
O=C(N/N=C/c1cc2c(cc1Br)OCO2)c1ccccn1	·	97	·	·	·	i	0.89
COc1ccc(NS(=O)(=O)c2cccc(N/C(=N\S(=O)(=O)c3ccccc3)c3ccc(F)cc3)c2)cc1	-1.3	64	-9	48	3	i	0.94
COCCNC(=S)N/N=C(\C)c1ccc(C)c([N+](=O)[O-])c1	1.1	108	9	137	-5	i	0.93
O=C(NC(=S)Nc1ccc(S(=O)(=O)NC2CCCCC2)cc1)c1cccs1	-0.1	103	·	·	-1	i	1
C/C(Cn1nnc2ccccc21)=N\OC(=O)c1ccccc1C	-0.5	112	-21	74	8	i	0.99
N#C/C(=N\O)c1nc2ccccc2[nH]1	-1.2	47	39	60	-5	i	1.1

New compounds follow.
smiles | GALR2 ag | RGS16-Gao | INS promoter inh | INS promoter inh cell count | PKD1 inh | HSV augment | HSV augment primary fold
CCc1c(C)c(C#N)c2nc3ccccc3n2c1NCc1ccccn1 | · | 101 | · | · | -2 | i | 0.93
COc1ccc(NC(=O)c2ccc(CN(c3cc(Cl)ccc3C)S(=O)(=O)c3ccccc3)cc2)cc1OC | -2.2 | 104 | -30 | 84 | -11 | i | 0.64
Cc1ccc(-n2c(SCC(=O)NCc3ccco3)nc3sc(C)c(C)c3c2=O)cc1 | -1.2 | 99 | 69 | 109 | -11 | i | 0.95
O=C(O)c1ccc(N=NN2CCOCC2)cc1 | 0.0 | 85 | -50 | 94 | -12 | i | 1
CC1CN(CCCCOc2ccc3ccccc3c2)CC(C)O1 (stereo unspecified) | -0.1 | 106 | 35 | 85 | -1 | i | 0.98
S=c1[nH]nc(-c2cc3ccccc3o2)n1Cc1ccccc1 | -1.1 | 107 | 44 | 106 | -16 | i | 1.1
O=C(c1ccc(CSc2ccccc2)cc1)N1CCCCCC1 | 0.3 | 100 | -8 | 148 | 0 | · | ·
N/C(=C\C(=O)c1cc(Cl)ccc1O)C(Cl)(Cl)Cl | · | 99 | · | · | · | i | 0.8
Nc1nnc(SCCOc2ccccc2)s1 | -0.1 | 115 | -29 | 58 | 1 | i | 1.1
CCN(CCCCN1C(=O)c2ccccc2C1=O)c1ccc2c(c1)C(=O)N(C)C2=O | -0.9 | 94 | · | · | 1 | i | 1.1
CCSc1nnc(NC(=O)[C@@H](NC(=O)c2cccc(C)c2)C(C)C)s1 | -1.0 | 96 | · | · | -5 | i | 1
CCOC(=O)c1sc2nc(SC)nc(-c3ccccc3)c2c1N | -2.1 | 107 | 17 | 125 | 3 | i | 0.94
O=C(c1ccc(F)cc1)c1c[nH]c(C(=O)NCc2cccnc2)c1 | 0.6 | 100 | 18 | 110 | -5 | i | 0.8
Fc1ccccc1/C=C1\CCCC2=C1Nc1ncnn1C2c1ccccc1F (stereo unspecified) | -0.3 | 100 | 86* | 102* | 0 | i | 0.51
COc1ccc(/C=C(/C(=O)Nc2ccccc2C(=O)NC(C)C)c2ccccc2)cc1 | -2.1 | 103 | -4 | 98 | 9 | i | 0.79
CCN(Cc1ccccc1)C(=O)CCCOc1ccccc1 | -1.0 | 114 | 29 | 84 | -2 | i | 0.94
Cc1ccc(C2(c3noc(CN4C[C@@H](C)O[C@@H](C)C4)n3)CCCC2)cc1 | · | 106 | · | · | -5 | i | 1
CC(=O)C1=C(C)NC2=C(C(=O)c3ccccc32)C1c1ccccc1 (stereo unspecified) | · | 100 | 35 | 91 | 3 | i | 0.91
CCCCCSc1nnc2c(n1)OC(c1cccn1C)N(C(C)=O)c1ccccc1-2 (stereo unspecified) | -1.8 | 95 | 0 | 96 | 6 | i | 1.1
CN(C)c1ccc(C(=S)N2CCCCC2)cc1 | · | 105 | 29 | 91 | -1 | i | 0.97
Cc1ccc2c(c1)sc1nc(=O)n(-c3ccc(Cl)c(Cl)c3)c(=O)n12 | 0.3 | 102 | 5 | 29 | -10 | i | 0.91
O=C(NCc1ccco1)c1cnccn1 | 0.0 | 101 | · | · | 3 | i | 0.95
Cc1ccc(-c2n[nH]c(=S)n2/N=C/c2ccc(C)s2)cc1 | -1.1 | 99 | 23 | 137 | -9 | i | 0.95
O=C1CCCc2c1sc1nc3n(c(=O)c21)CCCCC3 | -2.4 | 100 | -343 | 64 | -12 | i | 0.74
CC12CCC(C(=O)N3CCN(Cc4ccccc4)CC3)(OC1=O)C2(C)C (stereo unspecified) | -1.4 | 90 | 3 | 78 | -2 | i | 0.98

Exported with two lines to a compound: three of the compounds above
Results follow in this order: GALR2 ag	RGS16-Gao	INS promoter inh	INS promoter inh cell count	PKD1 inh	HSV augment	HSV augment primary fold
CCc1c(C)c(C#N)c2nc3ccccc3n2c1NCc1ccccn1
→ ·	101	·	·	-2	i	0.93
COc1ccc(NC(=O)c2ccc(CN(c3cc(Cl)ccc3C)S(=O)(=O)c3ccccc3)cc2)cc1OC
→ -2.2	104	-30	84	-11	i	0.64
Cc1ccc(-n2c(SCC(=O)NCc3ccco3)nc3sc(C)c(C)c3c2=O)cc1
→ -1.2	99	69	109	-11	i	0.95

Following part
smiles | GALR2 ag | RGS16-Gao | INS promoter inh | INS promoter inh cell count | PKD1 inh | HSV augment | HSV augment primary fold
Cn1cccc1Cc1nnc(SCC(=O)N2CCCCCC2)n1CCc1ccccc1 | -1.0 | 100 | · | · | -1 | i | 0.89
Cc1ccc(Oc2ccc(NC(=O)CSc3n[nH]c(N)n3)cc2)cc1 | -2.4 | 105 | 22 | 98 | -19 | i | 1
C=CCOc1ccc(Br)cc1CNC(C)(C)CO | · | 102 | · | · | 0 | i | 0.93
CN1CCN(C2=Cc3ccc(Cl)cc3Sc3ccc(F)cc32)CC1 | -1.4 | 104 | 19 | 99 | 0 | i | 0.63
Cc1c(C(=O)Nc2ccc3oc(-c4cccnc4)nc3c2)oc2ccccc12 | -0.6 | 94 | 25 | 111 | -8 | i | 0.9
CN1C(=O)NC(c2ccc(O)cc2)C2=C1CN(c1cccc3ccccc13)C2=O (stereo unspecified) | · | 135 | 9 | 29 | 2 | i | 0.96
N#Cc1ccccc1OCC(=O)NC(N)=O | -2.3 | 118 | 38 | 107 | -9 | · | ·
CCC1CCCCN1C(=O)c1ccc(OC2CCN(C(=O)C3CC3)CC2)cc1 (stereo unspecified) | · | 101 | · | · | 1 | i | 1.2
COc1ccc(Cl)cc1NC(=O)CSc1nc(N2CCCCC2)nc(N2CCCCC2)n1 | -1.0 | 102 | -7 | 115 | -4 | i | 0.9
C/C(=N/NS(=O)(=O)c1ccccc1)c1ccc(Cl)cc1 | · | 83 | · | · | 5 | i | 1
COc1ccc(C)cc1NC(=O)Nc1cccc(C)c1 | · | 97 | · | · | -2 | i | 0.95
Clc1ccc(-c2csc(N/N=C\c3cccnc3)n2)cc1 | 0.1 | 105 | · | · | 10 | i | 0.84

Screening data from PubChem.
